# Assay outcomes from PubChem.
# Vaccinia mCherry – vaccinia inhibition (mCherry reporter) | Vaccinia virus mCherry reporter infection, fluorescence; about a quarter of the inactives have no number | Potency, µM (top dose mostly 36.5 µM), for inactives: at the highest dose activity change, negative = inhibition, most hits filed as inhibitors | hit rate 0.63% among 310,000; active = well fitted inhibition curve with a large enough effect; inconclusive = small, poorly fitted or top-dose-only effect; inactive = no such curve, though single readings can be large or run the other way; tested in A549 cells; also: nearly all actives have a fitted effect of over 35% in size; inactives centre near -10
# Vaccinia Venus – inhibitors of vaccinia virus (Venus reporter); hit rate 0.46% among 330,000; Vaccinia virus Venus reporter expression, fluorescence; Potency, µM (titrated, usually from 36.5 µM), without a hit: at the top dose activity change, negative = inhibition, most hits filed as inhibitors; active means well fitted inhibition curve with a large enough effect; inconclusive means small, poorly fitted or top-dose-only effect; inactive means no such curve, though single readings can be large or run the other way; tested in A549 cells; also: nearly all actives have a fitted effect of over 30% in size; inactives centre near -10
# Active calls of the source: *; i = inactive; u = inconclusive; x = no result given; [ ] = dose if it differs, or a comment. % is scaled to controls: 0 for no effect and ±100 for the full control effect; potency is read from the fitted curve at half-maximal effect.
SMILES,Vaccinia mCherry,Vaccinia Venus
O=c1c(-c2cc(-c3ccc(Cl)cc3)nc3c2COc2ccccc2-3)coc2ccccc12,-11%,-10%
Cc1cc(C)n(C)c(=O)c1C#N,-15%,-14%
CC(C1OC(C)(C)C(O)C1O)C1CC[C@@]2(C)C3=CCC4C(C)(C)C(=O)CC[C@]4(C)C3CC[C@@]12C (stereo partly specified),-12%,-9%
Clc1ccccc1N1CCN(Cc2c[nH]c3ccccc23)CC1,-15%,-24%
CC1CCCCC1NC(=O)NC(=O)CCl (stereo unspecified),-14%,-10%
O=C1NCN(c2ccccc2)C12CCN(C(c1cccs1)c1nnnn1C1CCCCC1)CC2 (stereo unspecified),13%,-11%
COc1cccc2cc(C(=O)Nc3ccc(C)cc3)c(=O)oc12,2%,11%
CN1C(=O)NC(=O)C2(CCCC2)C1=O,i,-5%
CCCCN1C(=O)C(O)(c2c(C)[nH]c3ccccc23)c2cc(Br)ccc21 (stereo unspecified),-7%,-9%
CCOc1ccccc1NC(=O)CN1C(=O)CC(c2ccco2)Sc2ccccc21 (stereo unspecified),-23%,-22%
COc1ccc(C(=O)c2oc3ccc(Br)cc3c2NC(C)=O)cc1,i,-9%
CCOc1ccc2nc(NC(=O)CN3C(=O)NC4(CCCC4)C3=O)sc2c1,u,-23%
CCOC(=O)CNC(=O)Cn1nc(N2CCN(c3ccccc3)CC2)ccc1=O,0%,-2%
Cc1nnc(SCC(=O)NNC(=O)c2ccccc2)n1Cc1ccccc1,-15%,-5%
CCc1cc2cc(OC)ccc2nc1SCC(=O)NNC(=O)c1ccco1,-9%,3%
CCNC(=S)N1CCN(S(=O)(=O)c2ccccc2C(F)(F)F)CC1,5%,-2%
CCN(CC)CCN1C(=O)C(=O)/C(=C(/O)c2c(C)[nH]c(C(=O)OC)c2C)C1c1ccc(C)o1 (stereo unspecified),i[7.34 µM],1%[7.34 µM]
O=[S+]([O-])([O-])c1ccc2c(c1)cc([S+](=O)([O-])[O-])c1nn(-c3ccc(/C=C/c4ccc(-n5nc6c([S+](=O)([O-])[O-])cc7cc([S+](=O)([O-])[O-])ccc7c6n5)cc4[S+](=O)([O-])[O-])c([S+](=O)([O-])[O-])c3)nc12,-18%,-14%
Cc1ccc(S(=O)(=O)N[C@H](C(=O)Oc2ccc3c(C(F)(F)F)cc(=O)oc3c2)c2ccccc2)cc1,-18%,-12%
COC[C@]12CN(C=O)C3C4C(OC)C1[C@@]3(C1CC3(O)C(OC)C(O)C4(OC(C)=O)C1C3OC(=O)c1ccccc1)[C@@H](OC)CC2O (stereo partly specified),u,u
CC(C)(C)N1C(=O)c2ccc(C(=O)Nc3ccc(-c4nc5ccccc5[nH]4)cc3)cc2C1=O,-10%,-17%
O=C(NC(=S)NN1CCCCC1c1cccnc1)c1ccc(Cl)cc1Cl (stereo unspecified),-1%,-28%
CCOC(=O)c1c(NC(=O)C2=COCCO2)sc2c1CCN(C(=O)OC)C2,-23%,-15%
CCSc1nnc(NC(=O)c2cc(=O)c3cc(C)ccc3o2)s1,-12%,8%
CCCCC(CCCC)c1ccc(C=Nc2ccc(/C=C/c3ccnc4ccccc34)cc2)cc1,-8%,-2%

# Exported with each value named: 4 of the compounds above.
structure: CC1CCCCC1NC(=O)NC(=O)CCl (stereo unspecified)
  Vaccinia mCherry: -14%
  Vaccinia Venus: -10%

structure: O=C1NCN(c2ccccc2)C12CCN(C(c1cccs1)c1nnnn1C1CCCCC1)CC2 (stereo unspecified)
  Vaccinia mCherry: 13%
  Vaccinia Venus: -11%

structure: COc1cccc2cc(C(=O)Nc3ccc(C)cc3)c(=O)oc12
  Vaccinia mCherry: 2%
  Vaccinia Venus: 11%

structure: CN1C(=O)NC(=O)C2(CCCC2)C1=O
  Vaccinia mCherry: i
  Vaccinia Venus: -5%

# Complete entries, quoted from the list. Order of values: Vaccinia mCherry	Vaccinia Venus
# CCCCC(CCCC)c1ccc(C=Nc2ccc(/C=C/c3ccnc4ccccc34)cc2)cc1 as listed: -8%	-2%
# O=C1NCN(c2ccccc2)C12CCN(C(c1cccs1)c1nnnn1C1CCCCC1)CC2 (stereo unspecified) as listed: 13%	-11%
# Cc1cc(C)n(C)c(=O)c1C#N as listed: -15%	-14%

# (continued)
SMILES,Vaccinia mCherry,Vaccinia Venus
CCCCn1c(SCC(=O)c2ccc(OC)cc2OC)nc2cc(S(N)(=O)=O)ccc21,i,-16%
CCOc1ccc(C(=O)NC(=S)NC2CCCC2)cc1[N+](=O)[O-],-8%,-10%
Cc1c(C(=O)N/N=C/c2ccc(O)c(Br)c2)sc(N)c1C#N,-13%,-21%
CCOC(=O)C1CCCN(c2nc3ccccc3nc2C(C#N)C(=O)NCc2ccccc2)C1 (stereo unspecified),x,-22%
CCc1ccc(CNCc2c(C(=O)O)n(Cc3cccc(F)c3)c3cc(OC)ccc23)cc1,u,u
O=C(Cn1ncc2c(=O)oc3ccccc3c21)NCCc1ccsc1,10%,-13%
O=C(CN1CCN(c2ccc(F)cc2)CC1)N1CCC(Cc2ccccc2)CC1,-1%,-2%
Cc1ccc(C(=O)NCc2ccccn2)cc1NC1=NC2CS(=O)(=O)CC2S1 (stereo unspecified),-9%,5%
Cc1ccc(NC2c3ccccc3C(=O)N2CCN2CCOCC2)cc1 (stereo unspecified),-4%,-5%
OCC1O[C@@H](OC2C(O)C(CO)O[C@@]2(CO)O[C@@H]2OC(CO)C(O)C(O)C2O)C(O)C(O)C1O (stereo partly specified),0%,3%
O=C(Oc1ccc2c(c1)C(=O)c1ccccc1CO2)c1ccccc1,i,-6%
Cc1cc(NC(=O)COC(=O)COc2ccc(C(=O)c3ccccc3)cc2)no1,x,-11%
Cc1noc(C)c1S(=O)(=O)N(CC(=O)N1CCCC1)c1ccc(C(C)C)cc1,25%,-3%
CCn1cc(Cl)c(C(=O)Nc2cccc(C(F)(F)F)c2)n1,-14%,-4%
CCOc1ccc(S(=O)(=O)Nc2ccccc2C(=O)NCC2CCCO2)cc1 (stereo unspecified),i,-13%
CC(=O)c1oc2ccccc2c1NC(=O)COC(=O)c1ccc(-n2nc(C)cc2C)cc1,-1%,5%
CCCOc1ccc(C(=O)OCC(=O)c2c(N)n(C)c(=O)n(C)c2=O)cc1OC,-8%,0%
COc1cc(OC)c(NC(=O)CC(C)=O)cc1Cl,-1%,-13%
Cc1ccc(N)cc1C,i,-4%
c1cc(CNc2ccc3c(c2)OCO3)ccn1,-13%,-2%
CC(C)=C(c1ccc(Cl)cc1)c1c(N)ncnc1N,-18%,-8%
COc1cc(-c2nnc(-c3cccs3)o2)cc(OC)c1OC,-2%,9%
CCN(CC)CCNC(=O)c1ccc(NC(=O)Nc2cccc3ccccc23)cc1,i,1%
CC(=O)c1c(C)[nH]c(C(=O)OCC(=O)Nc2cc(C(F)(F)F)ccc2N2CCOCC2)c1C,x,-14%
COc1ccccc1N(CC(=O)Nc1ccc2c(c1)OCCO2)S(C)(=O)=O,-15%,-9%
# (continued)
SMILES,Vaccinia mCherry,Vaccinia Venus
COCc1c(C(=O)N2CCCC(C)C2)cnn1-c1nccc(-c2cc(C)sc2C)n1 (stereo unspecified),-5%,-3%
Cc1ccc(S(=O)(=O)N2CCN=C2SCc2c(F)cccc2Cl)cc1,-21%,-17%
O=c1[nH]c(O)c(/C=C2/C=CC(c3cc(Cl)ccc3Cl)=N2)c(=O)[nH]1,i,13%
C/C(=N\NC(=O)c1ccccc1)c1ccc(N2CCOCC2)cc1,-5%,-18%
Cc1ccc(Cl)cc1NC(=O)CNCC(c1ccccc1)N(C)C (stereo unspecified),-16%,0%
O=C(Nc1ccc(F)cc1)c1nc2c(nnn2Cc2cccc3ccccc23)c(=O)[nH]1,-25%,-17%
Cc1cccc(NC(=O)NNC(=O)c2sccc2-n2cccc2)c1,-10%,4%
Cc1cc(C(F)(F)F)c(C#N)c(SCC(=O)Nc2nc3cc(Br)ccc3s2)n1,-5%,-6%
Cc1ccc(S(=O)(=O)N2CCCc3cc(NC(=O)c4ccc(F)c(F)c4)ccc32)cc1,-10%,-20%
Nc1nc(SCC(=O)Nc2ccc3c(c2)OCO3)n[nH]1,i,-8%
COc1ccc(C(NC(=O)C(C)(C)C)NC(=O)C(C)(C)C)cc1,i,-15%
COc1ccc(OC)c(NC(=O)c2cccnc2Sc2ccccc2)c1,-7%,-5%
CCn1c(CCC(=O)N(C)CC(=O)Nc2cccc(F)c2)nc2cc(S(=O)(=O)N(C)C)ccc21,i,-7%
Cc1nc(C)c(-c2nnc(-c3cccc(S(=O)(=O)N(C)C)c3)o2)cc1C(=O)NN,i,-18%
COc1cccc2cc(C(=O)NC3CC(C)(C)NC(C)(C)C3)c(=O)oc12,-18%,-3%
O=C(c1nc2n(n1)C(c1ccc(Cl)cc1)C=C(c1ccccc1)N2)N1CCOCC1 (stereo unspecified),-10%,-22%
CCCCC(c1nnnn1CS(=O)(=O)c1ccc(C)cc1)N1CCN(c2ccccc2)CC1 (stereo unspecified),-22%,-19%
O=C(CSc1nnc(-c2ccco2)o1)c1ccc[nH]1,-16%,-10%
CCN(CC)c1cc2c(cc1F)c(=O)c(S(=O)(=O)c1ccc(C)cc1)cn2Cc1ccc(F)cc1,-16%,-18%
O=C(O)CSCc1nc2scc(-c3ccccc3)c2c(=O)[nH]1,-3%,-2%
COC(=O)[C@]1(Cc2ccccc2)N[C@H](CN(C)C(=O)COc2ccccc2)[C@@H]2C(=O)N(C)C(=O)[C@@H]21,-13%,0%
COc1ccc(-c2ccc(OC)c([C@H]3[C@H]4C=CC[C@@H](C)[C@@H]4C(=O)N3Cc3ccccc3)c2)cc1C,-4%,-4%
C#CCN(C[C@@H]1[C@@H](OC(=O)NCc2ccccc2F)[C@@H](OC(=O)NCc2ccccc2F)Cn2c(=O)n(CCCCCC)c(=O)n21)S(=O)(=O)c1ccc(C)cc1,-26%,-24%
CC(=O)NCCNc1ncncc1-c1ccccc1C(F)(F)F,-10%,-14%
COc1ccc(C(=O)N2CCN(c3cccc(Cl)c3)CC2)cc1,-19%,-4%
# Next results follow.
SMILES,Vaccinia mCherry,Vaccinia Venus
Cc1cc(-c2onc(C)c2C(N)=O)no1,i[7.34 µM],-14%[7.34 µM]
CN(C(=O)c1ccc(NC(=O)Cc2cccc([N+](=O)[O-])c2)cc1)C1CC1,i,-18%
CCOc1ccc(C(=O)N[C@H](C(=O)N2CCN(c3ncccn3)CC2)C(C)C)cc1,i,-14%
CCNC(=O)C1(C)CCN(C(=O)c2ccc(F)cc2Cl)C1 (stereo unspecified),5%,0%
CCC1CCCCN1CCCNC(=O)Cn1nc(-c2ccc(C)cc2)ccc1=O (stereo unspecified),-3%,-11%
Cc1cccc(-c2oc3ccc(-c4ccc5c(c4)OCO5)cc3c2C(=O)OCc2ccc(O)cc2)c1,-19%,u
Cc1cnc(NC(=O)C2CC(=O)N(c3ccc4c(c3)OCCO4)C2)s1 (stereo unspecified),-24%,-23%
COc1ccc(-n2nc(C(=O)NCC(=O)N3CCN(c4ccccc4)CC3)c3ccccc3c2=O)cc1OC,u,-1%
COc1ccccc1NC(=O)c1ncn(-c2ccccc2)n1,-8%,-2%
CNC(=O)COC(=O)c1cc(-c2ccccc2)nn1-c1ccccc1,-14%,-6%
O=C(CCCCCCCCCCC(=O)NCc1cccnc1)NCc1cccnc1,i,6%
O=C(CCc1ccccc1Cl)Nc1ccc(S(=O)(=O)N2CCOCC2)cc1,i,-24%
CCOC(=O)c1ccccc1NS(=O)(=O)c1cnn(CC)c1C,-13%,-12%
CCOc1ccc(-c2cn(-c3ccc(C)cc3)c(SCC(=O)Nc3ccc(C)cc3)n2)cc1,-18%,-24%
COc1ccc(CN2CCNC(=O)C2CC(=O)NC2CCCC2)cc1OC (stereo unspecified),-13%,-14%
Cc1cc(C)c(Cn2c(C3CC(=O)N(c4ccc(F)cc4)C3)nc3ccccc32)c(C)c1 (stereo unspecified),-26%,-27%
NC(=O)c1oc2ccccc2c1NC(=O)c1ccc([N+](=O)[O-])o1,u,u
CSc1ccc(S(=O)(=O)N2CCC(C(=O)Nc3cccnc3)CC2)cc1,-13%,-8%
COc1ccc2c(Sc3ccc(C)cc3)c(C(=O)NC(C)C)[nH]c2c1,-3%,-11%
Cc1ccc2nc(Cl)c(-c3ccccc3)cc2c1,-1%,-9%
COc1ccccc1/C=C/C(=O)NCC(=O)N/N=C/c1ccc2c(c1)OCO2,-14%,-20%
Cc1ccc(N2CC(NC(=O)C(=O)c3c(C)[nH]c4ccccc34)CC2=O)cc1 (stereo unspecified),-1%,-15%
COC(=O)c1ccccc1NC(=O)c1ccccc1NS(C)(=O)=O,-18%,-9%
COc1ccccc1CN(C)C(=O)c1ccc2c(c1)NC(=O)CS2,-26%,-11%
